Screening results (PubChem)
RecA intein inh – Mtb RecA intein splicing inhibition | P9WHJ3 | cell-free RecA intein splicing, fluorescence | inhibition, %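 (about 9 µM by stock and volumes)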 | actives 0.75% (n = 290,000) | AID 2221; in the data active means inhibition above about 30%; inconclusive means no clear call, values can overlap the other calls;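 further: 0% = vehicle wells and 100% = reference inhibitor control wells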
Target sequence (P9WHJ3 whole entry, looked up): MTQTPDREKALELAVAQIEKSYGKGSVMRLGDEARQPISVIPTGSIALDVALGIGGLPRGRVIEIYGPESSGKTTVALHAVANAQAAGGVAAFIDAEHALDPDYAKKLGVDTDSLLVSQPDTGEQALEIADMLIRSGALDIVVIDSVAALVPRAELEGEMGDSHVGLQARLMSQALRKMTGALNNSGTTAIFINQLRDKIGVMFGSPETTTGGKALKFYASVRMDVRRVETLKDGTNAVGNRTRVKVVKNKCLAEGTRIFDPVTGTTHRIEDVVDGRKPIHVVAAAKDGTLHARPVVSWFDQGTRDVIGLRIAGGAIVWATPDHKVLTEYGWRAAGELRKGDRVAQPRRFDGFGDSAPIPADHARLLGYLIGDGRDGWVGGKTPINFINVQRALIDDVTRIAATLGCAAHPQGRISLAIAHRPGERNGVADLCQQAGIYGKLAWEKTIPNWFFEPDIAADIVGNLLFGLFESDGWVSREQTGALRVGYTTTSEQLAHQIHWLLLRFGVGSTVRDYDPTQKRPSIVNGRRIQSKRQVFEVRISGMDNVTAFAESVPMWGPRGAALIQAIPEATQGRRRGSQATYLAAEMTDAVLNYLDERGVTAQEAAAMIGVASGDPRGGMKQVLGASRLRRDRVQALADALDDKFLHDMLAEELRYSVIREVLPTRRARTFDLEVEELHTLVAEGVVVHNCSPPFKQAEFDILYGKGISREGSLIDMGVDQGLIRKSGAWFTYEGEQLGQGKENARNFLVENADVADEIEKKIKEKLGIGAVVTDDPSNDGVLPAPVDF
YopH PTP inh – blocks Yersinia enterocolitica YopH tyrosine phosphatase; AID 898; actives 0.16% (n = 140,000); fluorescence Ex485/Em525; inhibition, %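 (about 10 µM by stock and volumes)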;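 active means inhibition of 50% or more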;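 further: controls were vehicle for no effect and minimum signal wells for full effect; inactives centre near -20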
Mtb betalactam – beta-lactam sensitization of Mtb H37Rv; actives 0.27% (n = 330,000); inhibition, % at 25 µM; AID 434955; M. tuberculosis H37Rv growth with meropenem, percent inhibition; hits of this screen are not shown here;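 active means about 74% or more and at least 40 points above the plate without the antibiotic, then above 30% in a dose series; inconclusive means first-round hits that could not be retested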;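 further: growth measured after seven days incubation then overnight dye step; 0% = bacteria only wells and 100% = bacteria with antibiotic; twin plates without the antibiotic show which effects depend on it; some results filed as inactive read as strong as hits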
Arbovirus inh – arbovirus infection inhibition | actives 0.37% (n = 200,000) | inhibition, % at 10 µM | AID 1251 | arbovirus infection cell-based antiviral screen;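 active means inhibition from about 30%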;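 further: bluetongue infection of BSR cells; cell survival read as ATP light after 72 h; 0% = infected wells without compound and 100% = uninfected wells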
Mtb H37Rv – M. tuberculosis H37Rv growth inhibitors, H37Rv strain (AID 1626). M. tuberculosis H37Rv growth inhibition; higher % means a stronger effect. inhibition, % at 10 µM; hits with a dose series show IC50 in µM. actives 0.95% (n = 220,000);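 active means confirmed in a dose series; inconclusive means inhibition above 80% but not taken into the dose series; inactive means below 80% or under 30% at every dose of the series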;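 further: bacteria incubated seven days before Alamar blue readout; 0% = bacteria only wells and 100% = bacteria with antibiotic wells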
Arbovirus inh repeat – also measured in Arbovirus inh; calls as there; inhibition, %; measured here: 10K subset replicate screen; many hits read low in the repeat;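 first of two repeat runs on a subset; 0% = infected and 100% = uninfected wells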
An asterisk follows results filed as active; & = joins results of further samples. This is a subset (hit frequency here may not be typical).

`COc1cccc(/C=N/n2nnnc2N)c1OCc1ccccc1Cl` gave RecA intein inh 2.0, YopH PTP inh -25, Mtb betalactam 12, Arbovirus inh -7 and Mtb H37Rv -2%.
For CCOC(=O)C1=C(C)OC(N)=C(C#N)C1c1cncc(-c2ccc(F)cc2)c1 (stereo unspecified) the results were RecA intein inh 2.3, YopH PTP inh -5, Mtb betalactam -4, Arbovirus inh -4 and Mtb H37Rv 3%.
Screening CC(c1ccccc1)n1cncc1C(=O)O (stereo unspecified) returned RecA intein inh -3.6, YopH PTP inh -31, Mtb betalactam -16, Arbovirus inh 6 and Mtb H37Rv -9%.
COc1ccc(CNC(=O)c2cnn3c(C(F)F)cc(C)nc23)cc1OC was read as RecA intein inh -0.3, YopH PTP inh -4, Mtb betalactam 0, Arbovirus inh 12, Mtb H37Rv -1% and Arbovirus inh repeat 9.
`COCCNC(=O)CN(Cc1cccs1)C(=O)CCC(=O)Nc1nccs1` gave RecA intein inh -4.3, Mtb betalactam -1, Arbovirus inh 13 and Mtb H37Rv 0%.
`COc1ccc(C2=CC(c3ccc(OC)c(OC)c3)NC(=S)N2)cc1` (stereo unspecified) gave RecA intein inh -3.5, YopH PTP inh -24, Mtb betalactam 47, Arbovirus inh -9 and Mtb H37Rv 18%.
Screening CCn1cc(C(=O)NCCCN(CC(C)C)CC(C)C)c(=O)c2cc(S(=O)(=O)N(C)C3CCCCC3)ccc21 returned RecA intein inh -5.4 and Mtb betalactam 6.
For CCc1ccc(NC(=O)CN2CC(c3ccccc3)CC2=O)cc1 (stereo unspecified) the results were RecA intein inh 0.5, Mtb betalactam -3 and Mtb H37Rv 0%.
`CCOc1cccc(/C(O)=C2/C(=O)C(=O)N(Cc3cccnc3)C2c2ccco2)c1` (stereo unspecified) gave RecA intein inh 7.4, YopH PTP inh -24, Mtb betalactam -13, Arbovirus inh 10 and Mtb H37Rv -13%.
`CCOC(=O)C1CCN(C(=O)COC(=O)c2cc(-c3cccs3)nn2-c2ccccc2)CC1` gave RecA intein inh 3.2 and Mtb betalactam 55.
`COc1ccc(Cc2nnc(N)s2)cc1` gave RecA intein inh -1.3, YopH PTP inh 7, Mtb betalactam -3, Arbovirus inh -2 and Mtb H37Rv -3%.
For COC(=O)CC(NC(=O)Nc1ccccc1F)c1ccc2c(c1)OCO2 (stereo unspecified) the results were RecA intein inh -2.2 and Mtb betalactam -3.
For CCc1ccc(NC(=S)NC(=O)CC(C)C)cc1 the results were RecA intein inh 0.9, YopH PTP inh -24, Mtb betalactam 76, Arbovirus inh -3 and Mtb H37Rv 46%.
For O=C(OCCOc1ccc(Br)cc1)c1cnccn1 the results were RecA intein inh 3.9, YopH PTP inh 3, Mtb betalactam 85, Arbovirus inh 0 and Mtb H37Rv 17%.
O=C(CN1C(=O)CSc2ccccc21)Nc1ccc2c(c1)OCCO2 was read as RecA intein inh 0.8, YopH PTP inh -20, Mtb betalactam 2, Arbovirus inh 2 and Mtb H37Rv -9%.
For CCOc1ccccc1C(=O)NC(C)c1ccc2c(c1)OCO2 (stereo unspecified) the results were RecA intein inh 0.3, YopH PTP inh -1, Mtb betalactam -1, Arbovirus inh -22 and Mtb H37Rv 0%.
`Cc1c(Cc2ccccc2)c(=O)oc2c(C)c(OCC(=O)Nc3ccc(C#N)cc3)ccc12` gave RecA intein inh 3.6, YopH PTP inh -2, Mtb betalactam 0, Arbovirus inh -11 and Mtb H37Rv -2%.
O=C(CN1CCN(c2ccc(F)cc2)CC1)Nc1nccs1 was read as RecA intein inh -1.5 and Mtb betalactam -7.
Screening COc1ccc2oc(C(=O)OCC(=O)Nc3ccc(N4CCOCC4)cc3)c(C)c2c1 returned RecA intein inh -1.7 and Mtb betalactam 3.
For CSc1cccc(NC(=O)C2CCN(S(C)(=O)=O)CC2)c1 the results were RecA intein inh 0.0, YopH PTP inh -16, Mtb betalactam -10, Arbovirus inh 6 and Mtb H37Rv 0%.
O=C(NCc1ccccn1)C1CC(c2ccc(F)cc2)=NO1 (stereo unspecified) was read as RecA intein inh -0.1, YopH PTP inh -32, Mtb betalactam -4, Arbovirus inh -2 and Mtb H37Rv 2%.
For c1ccc(C2[C@H]3CN(Cc4cccnc4)[C@H](c4ccccc4)C34CC2(c2cccnc2)C4)cc1 (stereo partly specified) the results were RecA intein inh 37*, Mtb betalactam 81 and Mtb H37Rv 79%.
O=C(c1ccco1)N1CCN(Cc2cn[nH]c2-c2ccc(F)cc2F)CC1 was read as RecA intein inh 0.9, Mtb betalactam 1, Arbovirus inh -7 and Mtb H37Rv -1%.
For Cc1ccc(C)c(-c2nn(-c3cc(N4CCN(CCO)CC4)ccc3[N+](=O)[O-])c(=O)c3ccccc23)c1 the results were RecA intein inh -5.0, YopH PTP inh -4, Mtb betalactam 92, Arbovirus inh -36 and Mtb H37Rv 20%.
O=C(O)c1nn(CC(=O)N2CCN(c3ccccc3)CC2)c(=O)c2ccccc12 was read as RecA intein inh -1.5 and Mtb betalactam -10.
Screening C[C@@H](c1ncncc1F)[C@](O)(Cn1cncn1)c1ccc(F)cc1F returned Arbovirus inh 6 and Mtb H37Rv -9%&0%.
Screening CC(C)N(C(=O)COC(=O)c1cncc(Br)c1)C(C)C returned RecA intein inh 1.0, Mtb betalactam -5, Arbovirus inh 2 and Mtb H37Rv 0%.
`O=C(NN1C(=O)c2ccccc2NC1c1ccco1)c1ccc([N+](=O)[O-])cc1` (stereo unspecified) gave RecA intein inh -2.7, Mtb betalactam 1, Arbovirus inh 4 and Mtb H37Rv -2%.
`O=C(Nc1ccncc1)c1cccn(Cc2ccccc2)c1=O` gave RecA intein inh -3.8, Mtb betalactam -11, Arbovirus inh 13 and Mtb H37Rv 4%.
Screening COc1cc(C(=O)NCc2nnc(SCC(=O)Nc3cccc(C)c3)o2)cc(OC)c1OC returned RecA intein inh -0.5, YopH PTP inh 8, Mtb betalactam -1, Arbovirus inh 2 and Mtb H37Rv -8%.
For COC(=O)CC1C(=O)NCCN1C(=S)NC(=O)c1ccccc1[N+](=O)[O-] (stereo unspecified) the results were RecA intein inh -1.0, YopH PTP inh -7, Mtb betalactam -1, Arbovirus inh -12 and Mtb H37Rv -4%.
COc1ccc(CCNC(=O)Cn2cc(C(F)(F)F)cc(Cl)c2=O)cc1OC was read as RecA intein inh -0.8, YopH PTP inh -26, Mtb betalactam -1, Arbovirus inh 0 and Mtb H37Rv -5%.
CC1(C)Cc2nc3oc4c(=O)n(CC(=O)Nc5ccccc5)cnc4c3cc2CO1 was read as RecA intein inh 0.7, YopH PTP inh 2, Mtb betalactam 3, Arbovirus inh -1 and Mtb H37Rv 0%.
COC(=O)c1cn(NC(=O)CCC2CCCC2)c(=O)c2ccccc12 was read as RecA intein inh 1.6, YopH PTP inh -5, Mtb betalactam -8, Arbovirus inh -7 and Mtb H37Rv -3%.
Screening COc1ccc(CNC(=O)COc2ccc(C)nc2[N+](=O)[O-])cc1 returned RecA intein inh 2.0, Mtb betalactam -8, Arbovirus inh 14 and Mtb H37Rv 6%.
`Cc1nn(C)c(C)c1CNC(=O)c1cc2n(n1)C(C(F)(F)F)CC(c1cccs1)N2` (stereo unspecified) gave RecA intein inh 0.6, YopH PTP inh -33, Mtb betalactam -10, Arbovirus inh 21 and Mtb H37Rv -4%.
For Cc1cc2nc(C3CCN(C(=S)NCCCOC(C)C)CC3)[nH]c2cc1C the results were RecA intein inh 4.1, Mtb betalactam -5, Arbovirus inh -1 and Mtb H37Rv -2%.
For COC(=O)CC1C(=O)NCCN1C(=S)NC(=O)c1sc2ccccc2c1Cl (stereo unspecified) the results were RecA intein inh 1.3, Mtb betalactam -6, Arbovirus inh 5 and Mtb H37Rv 2%.
`Cn1c(-c2ccc3c(c2)OCO3)cnc1N` gave RecA intein inh 3.4, YopH PTP inh -31, Mtb betalactam 3, Arbovirus inh 1 and Mtb H37Rv -9%.
Screening CCN(CC(=O)NCc1ccc(F)cc1)CC(=O)NC1CCCC1 returned RecA intein inh -3.5 and Mtb betalactam -4.

Pulled one by one from above (6):
O=C(c1ccco1)N1CCN(Cc2cn[nH]c2-c2ccc(F)cc2F)CC1 was read as RecA intein inh 0.9, Mtb betalactam 1, Arbovirus inh -7 and Mtb H37Rv -1%.
Screening COc1ccc(CNC(=O)COc2ccc(C)nc2[N+](=O)[O-])cc1 returned RecA intein inh 2.0, Mtb betalactam -8, Arbovirus inh 14 and Mtb H37Rv 6%.
Screening CCN(CC(=O)NCc1ccc(F)cc1)CC(=O)NC1CCCC1 returned RecA intein inh -3.5 and Mtb betalactam -4.
`O=C(NN1C(=O)c2ccccc2NC1c1ccco1)c1ccc([N+](=O)[O-])cc1` (stereo unspecified) gave RecA intein inh -2.7, Mtb betalactam 1, Arbovirus inh 4 and Mtb H37Rv -2%.
Screening CC(C)N(C(=O)COC(=O)c1cncc(Br)c1)C(C)C returned RecA intein inh 1.0, Mtb betalactam -5, Arbovirus inh 2 and Mtb H37Rv 0%.
Screening C[C@@H](c1ncncc1F)[C@](O)(Cn1cncn1)c1ccc(F)cc1F returned Arbovirus inh 6 and Mtb H37Rv -9%&0%.

More records:
Screening Cn1c(C(=O)NCCCN2CCCC2=O)cc2c(=O)n(C)c3ccccc3c21 returned RecA intein inh 1.1, YopH PTP inh -22, Mtb betalactam -7, Arbovirus inh -3, Mtb H37Rv 0% and Arbovirus inh repeat 2.
Screening COc1cccc(C2=NCCc3cc4c(cc32)OCO4)c1OC returned RecA intein inh -27, YopH PTP inh -32, Mtb betalactam 3, Arbovirus inh -2 and Mtb H37Rv 3%.
O=C(CC1=NCCNC(c2ccccc2)C1)c1ccccc1O (stereo unspecified) was read as RecA intein inh 4.0, YopH PTP inh -1, Mtb betalactam 1 and Arbovirus inh -3.
For CCOC(=O)C1(c2csc(N)n2)COC(=O)C1 (stereo unspecified) the results were RecA intein inh 2.1, YopH PTP inh -20, Mtb betalactam -8, Arbovirus inh 4, Mtb H37Rv -3% and Arbovirus inh repeat 2.
Screening Cc1nc2c(c(C)nn2-c2ccccc2)c(C)c1CCC(=O)NCCCOC(C)C returned RecA intein inh -0.8 and Mtb betalactam inconclusive.
`Cc1nc2ccc(C(=O)O)cc2c2c1CC(C)S2` (stereo unspecified) gave RecA intein inh 0.9, YopH PTP inh -11, Mtb betalactam 46, Arbovirus inh 17 and Mtb H37Rv 2%.
CC(C)OCCCNC(=O)c1ccc(N(C)S(C)(=O)=O)cc1 was read as YopH PTP inh 31, Mtb betalactam 4, Arbovirus inh 3 and Mtb H37Rv -5%.
CNC(=S)NCCc1ccc(OC)c(OC)c1 was read as RecA intein inh -0.6, YopH PTP inh -2, Mtb betalactam -6 and Arbovirus inh 4.
`COC(=O)Nc1ccc(S(=O)(=O)N2CCCc3ccccc32)cc1` gave RecA intein inh -2.5, YopH PTP inh -20, Mtb betalactam 10, Arbovirus inh -16 and Mtb H37Rv -3%.
Screening COc1ccc2oc(=O)c(C(=O)C[n+]3cccc(C)c3)cc2c1 returned RecA intein inh 1.5, Mtb betalactam 1, Arbovirus inh 16 and Mtb H37Rv -6%.
For C/C(=N\Nc1ccc(Cl)c(C(=O)O)c1)c1cccc([N+](=O)[O-])c1 the results were RecA intein inh -4.0, Mtb betalactam 11 and Mtb H37Rv 13%.
Screening Cc1ccccc1C(=O)NN1C(=O)CSC1=S returned RecA intein inh 0.3, YopH PTP inh -27, Mtb betalactam 0, Arbovirus inh -12 and Mtb H37Rv -6%.
For O=C(Nc1ccccc1)OCC1CCCN2CCCCC12 (stereo unspecified) the results were RecA intein inh 0.1, YopH PTP inh -6, Mtb betalactam -15, Arbovirus inh -2, Mtb H37Rv -9% and Arbovirus inh repeat 1.
`Cc1scc(-c2n[nH]c(=S)n2C(C)c2ccccc2)c1C` (stereo unspecified) gave RecA intein inh 3.0, YopH PTP inh -11, Mtb betalactam 4, Arbovirus inh -23 and Mtb H37Rv 4%.
Screening COc1ccc(-c2nnn(CC(=O)N(CC(=O)NC3CCCC3)c3ccccc3)n2)cc1OC returned RecA intein inh 2.4, Mtb betalactam 6, Arbovirus inh -3 and Mtb H37Rv -3%.
For Cc1nnc(SCC(=O)Nc2ccccc2F)n1Cc1ccco1 the results were RecA intein inh 6.1, Mtb betalactam -3 and Mtb H37Rv 7%.
`O=C1C(Cc2ccc3[nH]ccc3c2)NC(=S)N1c1ccccc1` (stereo unspecified) gave RecA intein inh 1.3, Mtb betalactam -6 and Mtb H37Rv -4%.
`O=C(Nc1ccc2ncccc2c1)c1cccc(Br)c1` gave RecA intein inh -2.5 and Mtb betalactam 0.
Screening Cc1nn(CC(=O)NC(=O)NC2CCCCC2C)c(=O)c(C#N)c1C (stereo unspecified) returned RecA intein inh -0.6 and Mtb betalactam 3.
